# PABP FP inh = blocks human PABP binding to poly(A) RNA | P11940 | fluorescence polarization | inhibition, % at 35 µM | AID 2014 | hit rate 1% among 290,000;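 active = 50% or more with normal probe brightness, or confirmed in later tests; inconclusive = above 50% with abnormal brightness, or retests that disagree; inactive = below 50% or failed in later tests; about a fifth of its hits are not listed in these tables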;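 note: calls also rest on retests at 20 µM and on dose response follow-up; controls were probe without protein and protein plus probe with vehicle; some compounds called inactive have numbers as strong as hits; many hits fall short of the cut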
# Rce1 inh = blocks yeast Ras-converting enzyme; calls only; yeast membranes, quenched prenylated peptide cleavage fluorescence; AID 2563; hit rate 0.27% among 290,000;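 active = fall in fluorescence gain of 50% or more versus controls, with final raw signal at or below 3038400; inconclusive = same 50% fall but final raw signal above 3038400; inactive = fall in fluorescence gain under 50%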;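 note: plate controls were neutral control wells for no effect and wells lacking membranes for full effect; tested at 10 µM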
# Target sequence (Q03530 whole entry, looked up): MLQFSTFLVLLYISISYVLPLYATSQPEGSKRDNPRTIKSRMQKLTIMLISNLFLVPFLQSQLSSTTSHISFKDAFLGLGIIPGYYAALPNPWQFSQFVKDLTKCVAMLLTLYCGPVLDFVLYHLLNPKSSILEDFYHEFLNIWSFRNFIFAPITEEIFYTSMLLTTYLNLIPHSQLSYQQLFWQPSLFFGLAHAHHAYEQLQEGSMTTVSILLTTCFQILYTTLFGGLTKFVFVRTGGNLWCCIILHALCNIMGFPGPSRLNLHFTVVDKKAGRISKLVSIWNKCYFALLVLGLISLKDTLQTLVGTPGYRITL
# eIF4H inh = inhibitors of RNA binding by human eIF4H | Q15056 | eIF4H fluorescence polarization binding assay | inhibition, % at 35 µM | hit rate 0.94% among 290,000 | AID 2012;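 active = 50% or more with normal probe brightness, or confirmed in later tests; inconclusive = above 50% with abnormal brightness, or retests that disagree; inactive = below 50% or failed in later tests; about a fifth of its hits are not listed in these tables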;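 note: calls also rest on retests at 20 µM and on dose response follow-up; 0% = protein and probe with vehicle and 100% = probe without protein; strong numbers were not always called active; many hits fall short of the cut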
# MT1-MMP act inh = MT1-MMP (human) activation inhibition; HT1080 RFP-PRO-GFP cells, GFP/RFP ratio fluorescence, overnight; percent of plate control window, DMSO zero; GFP/RFP ratio change, % at 20 µM; hit rate 0.061% among 360,000; AID 651647; P50281;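 active = GFP/RFP ratio change of at least 30% with cell ATP level not reduced by more than half and red fluorescence within 50% of control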; note: strong numbers were not always called active
#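 Test system: HT1080 RFP-PRO-GFP cells; Benchmarks: DMSO and RFP-L50D-GFP cell wells; Timing: cells overnight before dosing, compound overnight, 37 °C, 5% CO2; Compound: one 20 µM compound dose with 1% DMSO; Read-out: GFP/RFP fluorescence ratio.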
# Env fusion inh = inhibitors of HIV Env-mediated cell fusion; AID 651610; inhibition, % at 12.3 µM; HeLa-JRFL Env/CEM21 cell fusion, luciferase; hit rate 1.1% among 360,000;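 active = mean replicate inhibition score of at least 50 and every replicate individually at or above 50; inconclusive = only one of the two criteria met; inactive = mean below 50 and not all replicates reaching 50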;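 note: 0% = plate neutral controls and 100% = maraviroc near 300 nM; one replicate is shown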
# UUG fidelity = alters start codon recognition fidelity in yeast | AID 602363 | S. cerevisiae UUG-firefly luciferase reporter, luminescence/redox ratio | hit rate 0.13% among 350,000 | activity score, % at 18.7 µM;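 active = replicate mean at a twofold rise or more, about +100% in these data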;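 note: firefly luciferase made from a UUG start codon reports start codon fidelity; reporter light over untreated wells divided by growth signal over untreated wells; some hits fall short of that in this replicate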
# CSC inhib = cancer stem cell inhibition; inhibition, % at 7.5 µM; cancer stem cell-like cells viability, luminescence; hit rate 1.1% among 300,000;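 active = mean at 75% or more and at least half the replicates too; inconclusive = mean and replicates disagree; tested in HMLE shEcad cells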;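 note: 0% = median of negative and 100% = median of positive control wells; the first replicate is given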
# eIF4H inh retest = also measured in eIF4H inh; calls as there; inhibition, %; compound at 20 µM; confirmation average;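 mean of two retest wells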
# PABP FP inh retest = also measured in PABP FP inh; calls as there; inhibition, %; compound at 20 µM; confirmation repeats;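 mean of two retest wells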
# MT1-MMP act inh RFP = further read-out of MT1-MMP act inh, marked with its call; RFP signal change, %; measured here: RFP expression control read;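 0 = vehicle wells; hits needed this value within 50% of zero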
# * = called active by the depositor; i = inactive; ? = inconclusive; . = not tested or not shown.
SMILES,PABP FP inh,Rce1 inh,eIF4H inh,MT1-MMP act inh,MT1-MMP act inh RFP,Env fusion inh,UUG fidelity,CSC inhib,others
O=C(C1CCC1)N(CCc1ccccc1)Cc1nc2ccccc2c(=O)[nH]1,9.7,i,-5.4,-9.1,0.3,.,-15.2,3.2,
COc1cc2c(cc1OC)CN(c1ccc(F)cc1[N+](=O)[O-])CC2,1.2,i,-1.8,2.8,-0.1,-16.5,-5.8,12.5,
COc1ccc([C@@H]2CC=C(C(=O)O)[C@H](c3ccc(C)cc3)N2S(=O)(=O)c2ccc(C)cc2)cc1OC,.,.,.,4.7,6.5,13.3,-9.2,.,
NC(=O)COc1ccccc1C(=O)O,38.0,i,3.6,1.3,1.0,0.8,.,-10.3,
CN(C1CCCCC1)S(=O)(=O)c1ccc(S(=O)(=O)N2CCCC2)cc1,-3.9,i,-4.1,4.1,-4.5,.,-2.9,1.5,
CNC(=O)c1ccc(Nc2nnc(-c3ccc(C)c(S(=O)(=O)NCC4CCCO4)c3)c3ccccc23)cc1 (centres undefined),1.9,i,-6.3,1.7,-3.6,19.3,.,-13.6,
CC(C)(C)c1ccc(C(=O)Nc2ccc(Oc3cccnc3)nc2)cc1,1.1,.,10.0,7.1,-24.9,14.1,11.7,33.2,
CCOc1ccc2c(c1)sc1nc(C(=O)OC)cc(=O)n12,.,i,.,3.4,-0.9,-72.0,-21.2,-6.2,
N#Cc1c(N)nc2c(c1-c1ccc3c(c1)OCO3)CCc1ccccc1-2,-11.7,i,?,-21.8,1.1,0.7,-11.6,82.5*,
CC(=O)c1ccc(NC(=O)CSc2ccc3nnc(-c4cccnc4)n3n2)cc1,-1.7,i,13.5,-1.2,0.1,10.2,.,-13.8,
CN1CCN(c2ccc(Cl)cc2NC(=O)c2cc(=O)[nH]c3ccccc23)CC1,.,.,.,-4.5,1.5,-21.6,2.3,-0.9,
O=C(C1CCC(=O)N(C2CC2)C1)N1CCC(Oc2cccc(C(F)(F)F)c2)CC1 (centres undefined),-6.5,i,0.3,0.0,-10.3,17.7,1.4,.,
COc1ccccc1-c1nnc(SCC(=O)Nc2ccc(N3CCOCC3)cc2)n1N,.,.,.,6.3,1.9,-22.3,-14.2,6.7,
CN1CCN(C(=O)c2cc3c(ccc4ccccc43)oc2=O)CC1,12.9,i,-5.3,-3.1,-1.5,-23.2,1.4,-14.1,
CC(=O)c1ccc(OCc2cc(C(=O)NC(C)c3cnn(C)c3)no2)cc1 (centres undefined),-4.2,i,-4.8,-2.7,2.4,-234.4,-4.5,-2.9,
O=C(Cc1c(F)cccc1Cl)NCC1CCCO1 (centres undefined),-1.2,i,-2.1,3.2,3.5,.,.,-10.5,
NC1=C(c2ccc([N+](=O)[O-])cc2)C(=O)CO1,-1.5,i,1.0,2.8,7.9,-14.7,.,0.7,
CCOCC(=O)NCc1ccc2c(c1)cc(C)n2C,30.7,i,41.6,18.4,14.1,.,17.1,-1.5,
Cn1c(N)c(C(=O)COC(=O)c2cccnc2Cl)c(=O)n(C)c1=O,4.8,i,2.1,4.5,8.1,22.6,.,-7.4,
CCOCCC(=O)Nc1ccc2c(c1)c(=O)n(C)n2CC=C(C)C,.,.,.,-3.5,-5.9,-79.7,-0.2,.,
CC1CC(=O)C(C2c3ccccc3CCN2C(=O)CCl)C(=O)C1 (centres undefined),-9.4,i,24.2,-1.2,0.3,-1.1,.,-8.1,
Cc1c(S(=O)(=O)Nc2ccc3c(c2)OCCO3)c(=O)n(C)c(=O)n1C,3.3,i,-7.2,3.1,8.2,-1.6,-10.4,-0.1,
CCC(=O)Nc1nc2n(n1)C(c1ccc(OC)cc1)C=C(c1ccccc1)N2 (centres undefined),49.8,i,36.4,.,.,.,.,-11.4,
O=C(CCc1nnc(-c2ccccc2)o1)NCc1cc(F)ccc1F,7.3,i,2.6,1.7,4.0,2.1,.,-11.5,
Cc1ccc2oc(C(=O)N(Cc3ccncc3)CC3CCCO3)c(C)c2c1 (centres undefined),2.0,i,-6.1,-7.6,-5.7,26.8,-8.8,3.1,
Cc1ccc(NC(=O)c2cc3c(s2)CCCC3)cc1S(=O)(=O)Nc1ccccc1Cl,-25.4,i,-2.4,-12.7,-27.6,48.1,-13.7,51.6,
CC(=O)Nc1ccc(S(=O)(=O)Nc2nc3n(n2)C(c2ccccc2)CC(=O)N3)cc1 (centres undefined),-5.2,i,-2.6,-0.9,-0.2,.,-17.9,-10.0,
COc1cc(OC)nc(Oc2ccccc2C(=O)Oc2ccc(C)cc2)n1,-4.8,i,-0.9,18.4,0.4,.,1.9,10.4,
CCNC(=O)C1(C)CCCN(C(=O)c2c(C)noc2C)C1 (centres undefined),.,.,.,-0.2,7.9,7.1,-10.1,.,
CCOc1ccc(C(=O)Nc2ccc(S(=O)(=O)Nc3nccc(C)n3)cc2)cc1OCC,2.1,i,-4.9,5.6,1.6,5.2,-15.7,3.7,

# Part of the list above in order of length of the SMILES, lowest first:
SMILES,PABP FP inh,Rce1 inh,eIF4H inh,MT1-MMP act inh,MT1-MMP act inh RFP,Env fusion inh,UUG fidelity,CSC inhib,others
CCOCC(=O)NCc1ccc2c(c1)cc(C)n2C,30.7,i,41.6,18.4,14.1,.,17.1,-1.5,
NC1=C(c2ccc([N+](=O)[O-])cc2)C(=O)CO1,-1.5,i,1.0,2.8,7.9,-14.7,.,0.7,
CCOCCC(=O)Nc1ccc2c(c1)c(=O)n(C)n2CC=C(C)C,.,.,.,-3.5,-5.9,-79.7,-0.2,.,

# Continued:
SMILES,PABP FP inh,Rce1 inh,eIF4H inh,MT1-MMP act inh,MT1-MMP act inh RFP,Env fusion inh,UUG fidelity,CSC inhib,others
CCn1c2ccccc2c2cc(NC(=O)COC(=O)c3cc(OC)c(OC)cc3OC)ccc21,-5.7,i,-15.6,-4.3,-10.3,.,-6.2,-6.6,
Cc1cc(C)cc(NC(=O)N2CCCC2C(=O)NCc2ccco2)c1 (centres undefined),1.9,i,1.6,1.0,3.2,-19.9,.,-7.9,
Cc1ccc(/C=N/NC(=O)CNC(=O)c2ccc(S(=O)(=O)N(C)C)cc2)cc1,-7.7,.,-5.8,-1.0,3.7,5.7,.,-13.7,
O=C(COC(=O)c1ccc2ccccc2n1)Nc1ccccc1F,.,.,.,3.5,2.5,6.2,-9.8,-10.1,
CN1C(=O)N(C)C2(c3ccccc3)NC(=O)NC12c1ccccc1 (centres undefined),82.5,i,5.2,2.1,10.5,.,0.9,-3.1,eIF4H inh retest=-4.0;PABP FP inh retest=1.0
O=C(Cn1nnc(-c2ccc(S(=O)(=O)N3CCCC3)cc2)n1)Nc1ccccc1-n1cccc1,-5.7,i,-3.4,-5.2,-8.2,31.1,-1.4,.,
O=C(Cn1ncc2c([nH]c3ccccc32)c1=O)NCCc1ccc(Cl)cc1,-3.7,i,0.4,-0.2,-0.7,-2.7,-1.8,-4.8,
COc1ccc(-c2sc3ccc(N4CCOCC4)cc3c2C#Cc2ccsc2)cc1,.,.,.,5.1,4.0,0.0,-11.5,69.7,
COc1ccc2nc(NC(=O)c3cnccn3)sc2c1,-1.4,i,-6.4,8.8,5.7,-150.1,-8.0,-7.0,
CC1(C(=O)NS(=O)(=O)c2ccc(Cl)cc2)CCN1C(=O)CCc1ccc(Cl)cc1Cl (centres undefined),.,.,.,0.6,0.8,-3.1,-1.5,.,
CCOC(=O)C1CCCN(c2c(NCCCN3CCCC(C)C3)c(=O)c2=O)C1 (centres undefined),-7.2,i,3.4,11.0,11.1,6.7,13.9,-9.6,
COc1ccc(CC(=O)NNC(=O)c2cc(C)[nH]n2)cc1,-24.3,.,-0.4,-4.4,0.5,-376.3,-5.0,-6.5,
COc1ccc(C(CNC(=O)CSc2ccccc2C)N(C)C)cc1 (centres undefined),1.6,i,3.6,-3.9,-1.9,15.8,-9.3,6.5,
c1ccc2c(Nc3nc4c(s3)CCCC4)cccc2c1,15.2,i,1.6,4.2,3.7,-141.4,-20.0,3.2,
O=C(CNS(=O)(=O)c1ccc(Br)cc1)OCc1cc(=O)n2cc(Br)ccc2n1,0.5,i,70.6,.,.,-5.0,.,-12.4,eIF4H inh retest=-7.5;PABP FP inh retest=-1.2
COc1ccccc1P(=O)(Cc1ccccc1)c1ccccc1 (centres undefined),9.6,i,3.0,-2.4,0.5,12.1,-3.7,-8.1,
CN1CCN(NC(=S)Nc2ccccc2)CC1,4.8,i,-12.0,-3.8,1.4,-2.3,.,-6.6,
CC(C)C1=C2CCCCC2NC(=O)N1 (centres undefined),18.7,i,0.4,-22.6,0.3,.,-19.4,-9.6,
CCOc1ccc(-c2nc(CCl)cs2)cc1,0.5,i,-4.3,-2.4,-2.0,11.9,-20.6,-8.7,
CC(=O)c1ccc(Oc2cc(C(F)(F)F)cnc2C(N)=O)cc1,-10.0,i,-4.5,0.3,2.3,0.0,-16.0,.,
Cc1cccc(NC(=O)Cn2c(=O)n(CC3CCCO3)c(=O)c3ccccc32)c1 (centres undefined),3.3,i,-1.1,-2.6,2.5,10.6,2.7,-12.0,
Fc1cccc(-c2cc3nc4c(c(N5CCOCC5)n3n2)CCCC4)c1,-14.5,i,0.7,-6.5,-6.8,30.3,.,-5.5,
Cc1ccc(NC(=S)N(CCN2CCCCC2)Cc2ccco2)cc1C,-10.5,i,0.5,1.5,-0.2,-1.6,.,-2.6,
CC1=C(C(=O)OC(C)C)C(C)C(C(=O)OC(C)C)=C(C)N1,-8.1,i,2.1,-1.8,-0.8,37.7,8.1,4.3,
Cc1ccc2nc(N3CCC(C(=O)NC4CCCCC4)CC3)sc2c1,3.8,i,-2.1,1.3,-21.9,11.5,-14.9,11.9,
COc1ccc2c(c1)CC[C@@H]1[C@@H]2CC[C@]2(C)C(=O)CC[C@@H]12,3.9,i,-6.9,1.7,-5.4,-23.2,-8.6,-4.3,
Cc1ccc(N2CC(NS(=O)(=O)c3cccnc3)CC2=O)cc1C (centres undefined),.,i,.,-0.9,1.3,-21.1,.,-4.3,
CC(C)Oc1ccc(C2NC(=O)NC2=O)cc1 (centres undefined),-6.4,i,-0.6,1.7,0.7,-19.9,-18.8,-15.0,
CCc1ccc(OCC2c3cc(OC)c(OC)cc3CCN2C(C)=O)cc1 (centres undefined),6.8,i,-3.5,1.7,-6.6,.,-2.6,-1.8,
COc1ccc(C)cc1N(CC(=O)Nc1ccc(S(=O)(=O)N2CCOCC2)cc1)S(C)(=O)=O,-3.8,i,-12.5,0.3,-0.4,-3.1,-2.1,0.2,
CCn1c(C)cc(C(=O)CSc2nnc(C3CC3)n2C2CC2)c1C,.,.,.,-0.1,3.2,-1.5,-2.4,.,
COc1cc(/C=N/NC(=O)CN2CCOCC2)ccc1OCc1ccccc1,-9.0,i,2.9,4.0,0.7,6.5,.,-10.6,
CN(C(=O)CN1CCC(NC(=O)C2CCCCC2)CC1)C1CCCCC1,-9.7,i,1.4,0.4,-5.2,29.0,-16.0,11.7,
COc1ccc(NC(=O)CSc2nnnn2C2CCCC2)cc1S(=O)(=O)N1CCOCC1,.,.,.,-3.1,-0.1,12.7,-5.5,.,
CC(C)CN(CC(C)C)C(=O)CN1C(=O)NC2(CCc3ccccc3C2)C1=O (centres undefined),9.7,i,-3.0,-5.6,-6.0,-0.2,-10.1,.,
CCOC(=O)N1CCN(C(=O)COc2cccc3c2CCN(Cc2ccc(F)cc2)C3=O)CC1,-15.9,i,5.9,-3.5,-10.7,57.0*,7.2,26.2,

# Assay outcomes as filed in PubChem.

# A portion of the library; rates above refer to the full screens.
